HNF4A DNA FP – change in binding of human HNF4 alpha to DNA; P41235; HNF4a-FITC DNA binding, fluorescence polarization, 1 h; activity change, % at 10 µM; 360,000 compounds, 0.3% hits; AID 1224865; in the data active = activity change above about 30%, passing the limit was not always enough;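 also: controls were the assay level and a saturating level of protein; the project sought stronger binding though the title names inhibitors; some compounds called inactive have numbers as strong as hits; positive values seem to mean higher polarization but the record does not say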
Target sequence (P41235 whole entry, looked up): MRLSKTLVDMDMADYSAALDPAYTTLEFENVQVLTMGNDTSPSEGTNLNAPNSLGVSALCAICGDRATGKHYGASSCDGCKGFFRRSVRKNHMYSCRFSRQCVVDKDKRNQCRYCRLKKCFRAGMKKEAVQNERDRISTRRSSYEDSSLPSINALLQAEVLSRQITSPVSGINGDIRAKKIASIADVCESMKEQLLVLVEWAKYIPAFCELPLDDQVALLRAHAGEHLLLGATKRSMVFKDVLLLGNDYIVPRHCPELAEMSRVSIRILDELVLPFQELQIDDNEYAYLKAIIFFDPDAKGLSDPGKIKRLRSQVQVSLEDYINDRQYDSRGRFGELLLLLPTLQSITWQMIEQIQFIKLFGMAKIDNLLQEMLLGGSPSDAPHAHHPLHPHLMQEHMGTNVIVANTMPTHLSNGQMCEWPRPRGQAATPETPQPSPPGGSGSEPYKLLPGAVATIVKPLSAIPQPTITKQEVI
Vif A3G – HIV-1 Vif–A3G interaction blockers – biochemical, TR-FRET, GST-Vif 1-94, biotin-A3G peptide, dose response retest, primary screen (AID 1117319) | 260,000 compounds, 0.57% hits | TR-FRET GST-Vif / biotin-A3G peptide binding; higher % means a stronger effect; test concentration not given here; strong numbers were not always called active | one-dose inhibition, %; IC50 in µM for titrated hits;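 active = above the screen mean plus three standard deviations and confirmed in dose response; inconclusive = results disagree or hit not tested in dose response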;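 also: Vif residues 1-94 fused to GST binding biotinylated APOBEC3G peptide 110-148; 0% = full assay without inhibitor and 100% = GST in place of GST-Vif; retest series ran down from 100 µM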
FGF22 binding – shifts melting point of recombinant human FGF22; recombinant FGF22 thermal shift, SYPRO orange fluorescence; percent of sucrose octasulfate shift, DMSO zero; calls only at 9.99 µM; 340,000 compounds, 1.5% hits; AID 651658;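 active = melting point raised past a set limit in the mean and every replicate; inconclusive = no clear call; three in four hits are not shown here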
Target sequence (Q9HCT0 whole entry, looked up): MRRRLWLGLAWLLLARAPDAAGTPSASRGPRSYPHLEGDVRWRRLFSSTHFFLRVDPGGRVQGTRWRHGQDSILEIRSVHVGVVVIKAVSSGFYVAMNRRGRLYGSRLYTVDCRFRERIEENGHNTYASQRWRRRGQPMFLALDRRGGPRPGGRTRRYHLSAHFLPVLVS
E coli growth – E. coli growth inhibition; Escherichia coli growth, OD600, 23 h; stronger effect = lower value; OD600 absorbance (no concentration beside the values); 330,000 compounds, 0.21% hits; AID 1053175;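 active = OD600 absorbance below the run mean of sample wells minus 3.6 SD, in any replicate, cut at about 0.56 in these data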;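 also: stock transfer was 300 nL into about 60 µL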
MLL AF4-AF9 inh – blocks AF4 peptide binding to human AF9; P42568; inhibition, % at 10 µM; 350,000 compounds, 0.47% hits; AlphaScreen, biotin-AF4 peptide binding to FLAG-AF9;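 active = every replicate reaching a set inhibition limit, whatever the replicate mean, cut at about 25% in these data; inconclusive = mean inhibition reaches that limit but some replicates miss it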;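 also: 0% = plate neutral control median and 100% = total signal loss; the record names both 10 and 1 µM as test concentration; the first replicate is given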
rRNA inh HTS – inhibits bacterial ribosomal RNA function over humanized ribosomes; E. coli WT GFP vs humanized-ribosome RFP mutants, fluorescence, 24 h; stronger effect = lower value; DMSO median 0, no signal -100; GFP signal change (wild-type ribosome), % (concentration not given with the values); 350,000 compounds, 1.6% hits; AID 720706;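 active = significant combined selectivity score with lowered wild-type GFP, culture density cut under 30%, mutant RFP and density less affected; inactive = any of these conditions unmet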; also: one replicate is shown; some compounds called inactive have numbers as strong as hits
ALR inh – human ALR oxidase inhibition via reduced H2O2; purified ALR, DTT oxidation, H2O2 HRP-luminol luminescence; AID 485317; 290,000 compounds, 3.8% hits; inhibition, % (test concentration not listed);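 active = mean and each replicate at 75% or more; inconclusive = only one of the two met; inactive = neither met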;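 also: stock transfer was 7.5 nL into about 7.5 µL; 0% = neutral wells and 100% = wells with inactivated enzyme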
Target sequence (P55789 whole entry, looked up): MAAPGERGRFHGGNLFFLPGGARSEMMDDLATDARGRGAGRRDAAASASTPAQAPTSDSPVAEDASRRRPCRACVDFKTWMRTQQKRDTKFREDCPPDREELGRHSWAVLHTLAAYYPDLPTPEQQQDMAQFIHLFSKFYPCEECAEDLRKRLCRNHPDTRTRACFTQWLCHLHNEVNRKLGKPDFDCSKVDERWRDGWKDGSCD
rRNA inh HTS OD600 – further read-out of rRNA inh HTS, marked with its call; OD600 change, %; measured here: OD600 growth;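 optical density of the mix in the first replicate; 0 = DMSO median and -100 = no signal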
rRNA inh HTS RFP – also measured in rRNA inh HTS; calls as there; RFP signal change, %; measured here: RFP humanized mutant strains;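 first replicate; 0 = DMSO median and -100 = no signal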
Starred values were filed as active, the others as inactive; i = inactive; ? = inconclusive; · = not tested or not shown; & = joins results of further samples. These rows are one share of the data (hit frequency here may not be typical).

SMILES	HNF4A DNA FP	Vif A3G	FGF22 binding	E coli growth	MLL AF4-AF9 inh	rRNA inh HTS	rRNA inh HTS OD600	rRNA inh HTS RFP	ALR inh
OC(c1ccccc1)(c1ccccc1)C1CCN(CCCOc2ccccc2Cl)CC1	-3.0	·	i	·	9.7	-48	-80	-18	·
CCN(C(=O)c1ccc(C(C)(C)C)cc1)c1nnc(Cn2nnc3ccccc32)s1	3.5	-2%&-9%	·	0.71	·	·	·	·	-6
CCn1c(C(=O)N2CCC(C(=O)NCc3ccc(OC)cc3)CC2)cc2sccc21	1.6	-5%	i	0.72	2.6	-15	-19	-2.7	-5
COc1ccccc1-c1ccc2c(c1)O[C@@H](CN(C)C(=O)c1ccccc1)[C@H](C)CN([C@H](C)CO)S2(=O)=O	·	·	i	·	2.1	-3	-27	2.3	·
C[C@@H](NC(=O)[C@@H]1Cc2ccccc2CN1C(=O)OC(C)(C)C)C(=O)NC1CCCC1	1.1	-6%	i	0.6	0.7	0	8	-3.6	-8
COCC#Cc1ccc2c(c1)O[C@@H](CN(C)C(=O)c1ccccc1F)[C@@H](C)CN([C@H](C)CO)S2(=O)=O	·	·	i	·	-0.3	-8	-10	-5.0	·
Cc1nc2sc3c(c2c(=N)n1N)CCCC3	-3.2	-8%	i	0.68	-0.2	-1	-8	-2.7	2
CSc1ccccc1NC(=O)CN(C)C(=O)/C=C/c1ccccc1	-0.1	-1%	i	0.65	1.1	-8	-11	-1.8	2
C[C@H](CO)N1C[C@H](C)[C@H](CN(C)S(=O)(=O)c2ccc(C#N)cc2)Oc2ncc(C#CCN(C)C)cc2C1=O	·	·	i	·	-1.2	-1	-11	1.5	·
O=C1c2cccc(NCCCNCCO)c2C(=O)c2cccc(NCCCNCCO)c21	42	2%	i	·	32*	-40	-10	43	·
CC(CCc1ccccc1)NC(=O)c1ccc(NC(=O)c2cccc(Br)c2)cc1 (configuration not stated)	1.4	-25%	·	·	·	·	·	·	-1
CCOC(=O)c1ccc(NC(=O)CSc2nnc(COc3ccccc3OC)n2C)cc1	2.8	2%	i	0.74	-2.2	1	5	-3.7	-1

Two entries drawn at random from those above:
SMILES	HNF4A DNA FP	Vif A3G	FGF22 binding	E coli growth	MLL AF4-AF9 inh	rRNA inh HTS	rRNA inh HTS OD600	rRNA inh HTS RFP	ALR inh
C[C@H](CO)N1C[C@H](C)[C@H](CN(C)S(=O)(=O)c2ccc(C#N)cc2)Oc2ncc(C#CCN(C)C)cc2C1=O	·	·	i	·	-1.2	-1	-11	1.5	·
CC(CCc1ccccc1)NC(=O)c1ccc(NC(=O)c2cccc(Br)c2)cc1 (configuration not stated)	1.4	-25%	·	·	·	·	·	·	-1

(next part)
SMILES	HNF4A DNA FP	Vif A3G	FGF22 binding	E coli growth	MLL AF4-AF9 inh	rRNA inh HTS	rRNA inh HTS OD600	rRNA inh HTS RFP	ALR inh
CCCN(C1CCS(=O)(=O)C1)S(=O)(=O)c1ccc(F)cc1 (configuration not stated)	-0.4	-2%	i	0.63	-4.4	5	7	-1.2	-10
COC(=O)C1C(=O)C=C(Nc2ccc(F)cc2F)CC1c1ccc(OC)cc1 (configuration not stated)	5.2	·	i	0.69	-1.7	-1	-4	0.6	1
COc1ccc(-c2ccc([C@H]3[C@@H](C#N)N(C(=O)C4CCCC4)[C@@H]3CO)cc2)cc1	·	·	i	·	-1.3	0	1	0.7	·
CC(=O)Nc1cccc(NC(=O)c2ccc([N+](=O)[O-])cc2Cl)c1	0.5	29%	i	·	11	-11	-4	-11	-15
CCOc1cc(C(=O)Nc2ccc(S(=O)(=O)Nc3cnc4ccccc4n3)cc2)cc(OCC)c1OCC	-2.2	·	·	0.64	0.7	·	·	·	28
Cc1c(NC(=O)CC2CC(C)OC2=O)c(=O)n(-c2ccccc2)n1C (configuration not stated)	0.1	-2%	·	0.7	·	·	·	·	-13
COc1ccccc1N1CCN(CC(O)COc2ccc(S(=O)(=O)N3CCOCC3)cc2)CC1 (configuration not stated)	2.0	4%	·	0.64	·	·	·	·	5
CC1(C)OC(C)(C)/C(=C\c2ccccc2[N+](=O)[O-])C1=O	1.5	8%	i	0.66	-1.6	11	5	2.8	-17
COC(=O)C(CCSC)NC(=O)C(NC(=O)C1CCC(C)CC1)C(C)C (configuration not stated)	-1.5	4%	·	0.69	·	·	·	·	-6
CCOc1ccc(NC(=O)CSc2nc3c([nH]c4ccccc43)c(=O)n2C)cc1	0.7	·	i	0.73	-8.5	10	6	-0.3	1
O=C(NCc1ccc2c(c1)OCO2)Nc1cccc2ccccc12	-1.2	10%	i	0.7	0.1	14	9	-5.0	2
Cc1ccc(-c2ccc(C(=O)Nc3ccccc3)o2)c2ccccc12	2.9	-2%	i	0.74	3.2	11	13	4.6	-18
CCC(C)[C@H](NC(=O)[C@H](Cc1ccccc1)n1c(=O)[nH]c2ccccc2c1=O)C(=O)N1CCC(C(=O)O)CC1 (some centres not stated)	0.6	·	i	0.74	-1.9	·	·	·	1
COC(=O)[C@@]1(Cc2ccc(OC)cc2)[C@@H]2[C@@H](CC(=O)[C@H]2CC(=O)C(=O)N(C)C)CN1C(=O)c1ccccc1	-4.3	?	i	·	0.3	13	11	9.9	-18
CCNC(=O)Nc1ccc2c(c1)C(=O)N(C)[C@@H]1CC[C@H](CC(=O)N[C@H](C)c3ccccc3)O[C@@H]1CO2	·	·	i	·	-4.7	0	-3	-1.3	·
COc1ccc(S(=O)(=O)Nc2ccc3c(c2)C(=O)N([C@@H](C)CO)C[C@@H](C)[C@@H](CN(C)S(=O)(=O)c2ccccc2)OCCCC[C@@H](C)O3)cc1	·	·	i	·	2.8	-3	2	1.9	·
O=C(Nc1cc(S(=O)(=O)N2CCOCC2)ccc1N1CCCC1)C1COc2ccccc2O1 (configuration not stated)	0.7	·	i	0.73	-1.0	-20	-10	-4.1	·
COc1ccc(NC(=O)C/C(C)=N/NC(=O)c2cnccn2)cc1Cl	3.4	-1%	i	·	2.4	-5	3	-0.5	4
O=C1CC(c2ccco2)Cc2nc(N3CCN(Cc4ccc5c(c4)OCO5)CC3)ncc21 (configuration not stated)	2.1	8%	·	0.66	·	·	·	·	-7
CCC(=O)Nc1ccc2c(c1)OC[C@H](C)N(C(=O)CN(C)C)C[C@@H](C)[C@H](OC)CN(C)C2=O	·	·	i	·	1.0	1	2	-0.1	·
CCOC(=O)c1cc2c(ccn2C)n1CC(=O)N1CCN(c2cccc(C(F)(F)F)c2)CC1	-4.5	3%	·	0.64	·	·	·	·	·
C=CCn1c(COc2ccccc2)nnc1SCC(=O)O	0.8	11%	·	0.76	·	·	·	·	-5
Cc1cc(C)cc(NC(=O)c2cccc(N3C(=O)C4C5C=CC(C5)C4C3=O)c2)c1 (configuration not stated)	0.9	3%	i	0.69	-0.4	-5	-35	-5.6	·
O=C(Nc1ccncc1)Nc1cccc(F)c1	-2.4	·	i	0.57	1.4	-33	-39	-11	-10
Cc1cc(C(=O)OCC(=O)N2CCCC2)c2ccccc2n1	-1.3	12%	i	0.67	3.4	4	7	0.1	-8
CN(c1ccccn1)c1ncnc2[nH]ncc12	-1.1	·	·	0.7	-6.2	21	17	4.6	-10
O=C(CSCc1c(Cl)cccc1Cl)Nc1cccnc1	-2.1	·	i	0.71	0.1	-24*	-12*	-3.3*	-7
COc1cc2ncnc(NCc3ccc4c(c3)OCO4)c2cc1OC	1.2	-98%	i	0.67	-4.2	4	5	2.0	-3
CCC(=O)N1CCCC(C)(C(=O)NS(=O)(=O)c2ccccc2Cl)C1 (configuration not stated)	1.4	·	i	·	0.2	10	17	2.8	·
COc1ccc(S(=O)(=O)N(C)C[C@H]2Oc3ccc(NC(=O)Cc4cn(C)c5ccccc45)cc3CC(=O)N([C@@H](C)CO)C[C@@H]2C)cc1	·	·	i	·	0.5	3	-6	2.1	·
CCCCCCOc1ccc(N2C(=O)CC(S/C(N)=N/N=C(\C)c3cccs3)C2=O)cc1 (configuration not stated)	-3.1	-2%	·	·	·	·	·	·	-1
COc1ccc(NC(=O)CC2SC(=Nc3ccccc3)NC2=O)c(OC)c1 (configuration not stated)	0.4	6%	i	0.73	0.6	-5	-3	-2.5	-5
COc1ccc(C(=O)Nc2ccc3ccccc3c2)c(OC)c1	2.8	4%	i	0.62	-3.5	-28*	-20*	-4.3*	-7
C[C@@H]1CCCCO[C@@H](CN(C)S(=O)(=O)c2cn(C)cn2)[C@H](C)CN([C@@H](C)CO)C(=O)c2cc(NC(=O)c3ccncc3)ccc2O1	·	·	i	·	-2.1	2	6	-1.3	·
CC(=O)c1ccc(Nc2nc(CN)cs2)cc1	1.5	·	i	·	0.0	4	12	-1.1	·
CCOc1ccc(N(C(=O)CNC(=O)c2ccco2)C(C(=O)NC2CCCC2)c2ccco2)cc1 (configuration not stated)	4.5	·	i	0.68	-2.9	13	6	0.5	·
COc1c(C)cc(C(=O)C2CCCN(C(=O)c3cc(C4CC4)[nH]n3)C2)cc1C (configuration not stated)	3.0	·	i	0.67	1.8	-11	-11	2.3	-3
Cc1cc(C)n(CC(O)COc2ccccc2C(=O)Nc2ccccc2)n1 (configuration not stated)	1.1	4%	·	0.66	·	·	·	·	-1
CN(C)[C@H]1N(C(=O)c2ccc(Br)cc2)N=C2c3ccccc3S(=O)(=O)N21	-3.5	70%	·	0.68	·	-4	-7	1.2	-6
C[C@@H]1CCCCO[C@@H](CN(C)C(=O)c2ccncc2)[C@H](C)CN([C@H](C)CO)C(=O)c2cc(N(C)C)ccc2O1	·	·	i	·	-9.3	2	1	-1.3	·
CCOc1ccc(S(=O)(=O)Nc2ccccc2SC)cc1	1.6	5%	·	0.73	·	·	·	·	-6
CC(=O)c1ccc(OCCCC(=O)NC2=NCCS2)cc1	-0.3	-3%	·	0.68	·	·	·	·	-11
COc1cccc(NC(=O)C(Cc2ccccc2)NC(=O)C2CCC(C)CC2)c1 (configuration not stated)	4.5	-8%	·	0.71	·	·	·	·	-1
COc1ccc2c3c(n(C)c2c1)[C@@H](CO)NCC31CN(S(=O)(=O)c2cccc(C)c2)C1	·	·	i	·	0.3	-2	-19	1.9	·
CN1CCN(C(=O)C[C@H]2CC[C@H]3[C@@H](COC[C@H](O)CN3Cc3cccc(Cl)c3)O2)CC1	·	·	i	·	0.3	0	13	-0.5	·
Cc1ccc2nc(SCC(=O)NC3CC3)[nH]c2c1	2.0	·	i	0.66	-1.1	-1	4	9.0	-5
COc1cccc(CNS(=O)(=O)c2ccc3c(c2)N(C)CCO3)c1	-0.3	3%	i	0.7	3.2	-4	0	2.3	14
CCCC(=O)Nc1ccc2c(c1)OC[C@@H](C)N(Cc1cncnc1)C[C@@H](C)[C@@H](OC)CN(C)C2=O	·	·	i	·	44*	-1	-1	-2.1	·
C[C@H](CO)N1C[C@H](C)[C@H](CN(C)Cc2cccc(F)c2)Oc2ncc(C#CCN(C)C)cc2C1=O	·	·	i	·	4.4	7	7	-3.9	·
Cc1ccc([C@@]2(OC(=O)c3ccccc3)C(=O)N(C(=O)OC(C)(C)C)c3ccccc32)cc1	-1.0	·	i	·	0.0	10	6	5.1	·
O=C(NCC[C@H]1CC[C@@H](NC(=O)C2CCOCC2)[C@@H](CO)O1)c1cc(Cl)cc(Cl)c1	·	·	i	·	-0.6	-1	4	0.0	·
COc1cccc(CN2CCN(c3ccc(F)cc3)C2=O)c1	-8.6	14%	i	0.67	-4.5	3	12	2.7	·
CCC(c1nnc(SCC(=O)N2CCOCC2)n1C1CCCCC1)N(C)C (configuration not stated)	10	5%	i	0.68	0.2	8	5	4.3	-6
